HNF4A DNA FP: change in binding of human HNF4 alpha to DNA; 360,000 compounds, 0.3% hits; P41235; HNF4a-FITC DNA binding, fluorescence polarization, 1 h; activity change, % at 10 µM; in the data active = activity change above about 30%, passing the limit was not always enough;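 note: controls were the assay level and a saturating level of protein; the project sought stronger binding though the title names inhibitors; some compounds called inactive have numbers as strong as hits; positive values seem to mean higher polarization but the record does not say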
Target sequence (P41235 whole entry, looked up): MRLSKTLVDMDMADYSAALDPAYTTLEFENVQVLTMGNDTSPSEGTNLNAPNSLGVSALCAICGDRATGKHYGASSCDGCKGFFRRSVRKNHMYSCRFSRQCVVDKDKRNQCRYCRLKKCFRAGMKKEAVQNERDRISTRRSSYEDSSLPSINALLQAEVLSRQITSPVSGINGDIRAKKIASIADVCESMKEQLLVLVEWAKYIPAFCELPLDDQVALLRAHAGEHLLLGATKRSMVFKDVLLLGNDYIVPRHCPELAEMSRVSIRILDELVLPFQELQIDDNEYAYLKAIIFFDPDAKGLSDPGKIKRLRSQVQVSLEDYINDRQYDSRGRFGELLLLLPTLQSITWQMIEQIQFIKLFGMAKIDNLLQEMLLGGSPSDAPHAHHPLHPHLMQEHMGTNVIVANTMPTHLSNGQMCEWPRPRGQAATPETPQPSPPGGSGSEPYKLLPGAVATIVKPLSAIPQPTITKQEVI
Vif A3G: HIV-1 Vif–A3G interaction blockers – biochemical, TR-FRET, GST-Vif 1-94, biotin-A3G peptide, dose response retest, primary screen (AID 1117319) | TR-FRET GST-Vif / biotin-A3G peptide binding; higher % means a stronger effect; test concentration not given here; strong numbers were not always called active | 260,000 compounds, 0.57% hits | inhibition, %; hits with a dose series show IC50 in µM;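 active = above the screen mean plus three standard deviations and confirmed in dose response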;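 note: Vif residues 1-94 fused to GST binding biotinylated APOBEC3G peptide 110-148; 0% = full assay without inhibitor and 100% = GST in place of GST-Vif; retest series ran down from 100 µM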
The depositor's hits bear a star. A portion of the library (hit frequency here may not be typical).

SMILES	HNF4A DNA FP	Vif A3G
O=C1CCN(C(=O)c2ccccc2)c2ccccc21	0.0	4%
COc1ccc(Cc2nc3ccc(C(=O)N4CCC(C(N)=O)CC4)cc3o2)cc1	5.7	2%
CC1C2CCC(C2)C1OC(=O)c1ccccc1C(=O)O (stereo unspecified)	-2.3	-2%
COc1ccccc1C(=O)N/C(=C\c1cn(S(=O)(=O)N(C)C)c2ccccc12)C(=O)N1CCN(C)CC1	0.3	3%
COc1ccccc1CN1CC(C(=O)NCC2(O)CCCCC2)CCC1=O (stereo unspecified)	-4.5	-1%
Cc1cccc(CNC(=O)C2CCC(=O)N(CC3CCCCC3)C2)c1 (stereo unspecified)	-0.4	3%
CC1=C(C(=O)N2CCOCC2)CC(CC(=O)NCC2CCCCC2)C(=O)N1Cc1ccccc1 (stereo unspecified)	0.3	-2%
C[C@@H]1CN([C@@H](C)CO)S(=O)(=O)c2ccc(Br)cc2O[C@H]1CN(C)Cc1ccc(-c2ccccc2)cc1	-1.7	-6%
S=C(NNC(=S)Nc1ccc(Cl)cc1)NNc1ccccc1	-9.9	-3%
CS(=O)(=O)N1CCC(C(=O)Nc2ccc(Cl)cc2Cl)CC1	0.2	2%
CCCCCCN1C[C@@H](n2cc(COC(=O)c3ccccc3)nn2)[C@H](O)C[C@@H]1c1ccc(C)cc1	-3.9	-2%
COc1cc(-c2c(NC(=O)c3ccco3)oc3ccc(Cl)cc3c2=O)cc(OC)c1OC	5.6	0%
CCOC(=O)C(=NO)C1=CSC2=NNC(C)(C)N12	4.7	5%
c1ccc(CN2CCC3CC2c2cc(N4CCCCC4)ccc23)cc1 (stereo unspecified)	1.7	-9%
Cc1ccc(C)c2c1CCC(=Cc1ccccc1[N+](=O)[O-])C2=O	1.7	-11%
Nc1ccn([C@@H]2O[C@H](CNCc3ccc(N4CCNCC4)cc3)[C@@H](O)[C@H]2O)c(=O)n1	-1.0	5%
Cc1ccc(S(=O)(=O)NCC2CCC(C(=O)NCCCN3CCC(C)CC3)CC2)cc1 (stereo unspecified)	4.8	-1%
O=C(NCc1ccc(F)cc1)N1[C@H]2CC[C@@H]1C=C(c1ccc(F)cc1OCc1ccccc1)C2	2.2	-5%
CC1CCCN(CCCNC(=O)c2ccc3c(c2)N(Cc2cccc(Cl)c2)C(=O)c2ccccc2S3=O)C1 (stereo unspecified)	3.4	-5%
C[C@@H]1CN([C@@H](C)CO)S(=O)(=O)c2ccc(Br)cc2O[C@@H]1CN(C)Cc1ccccn1	-3.9	1%

The closing 5 records of the section before lead into the next:
SMILES	HNF4A DNA FP	Vif A3G
Nc1ccn([C@@H]2O[C@H](CNCc3ccc(N4CCNCC4)cc3)[C@@H](O)[C@H]2O)c(=O)n1	-1.0	5%
Cc1ccc(S(=O)(=O)NCC2CCC(C(=O)NCCCN3CCC(C)CC3)CC2)cc1 (stereo unspecified)	4.8	-1%
O=C(NCc1ccc(F)cc1)N1[C@H]2CC[C@@H]1C=C(c1ccc(F)cc1OCc1ccccc1)C2	2.2	-5%
CC1CCCN(CCCNC(=O)c2ccc3c(c2)N(Cc2cccc(Cl)c2)C(=O)c2ccccc2S3=O)C1 (stereo unspecified)	3.4	-5%
C[C@@H]1CN([C@@H](C)CO)S(=O)(=O)c2ccc(Br)cc2O[C@@H]1CN(C)Cc1ccccn1	-3.9	1%
C[C@@H]1CN([C@H](C)CO)C(=O)CCCn2nncc2CO[C@@H]1CN(C)S(=O)(=O)c1ccccc1C#N	2.5	0%
C#CCN(C(=O)C1CCC(=O)N(CCc2cccc(F)c2)C1)C1CCCCC1 (stereo unspecified)	4.4	-1%
C[C@H](CO)N1C[C@H](C)[C@@H](CN(C)S(=O)(=O)c2cccc(F)c2)Oc2ncc(Br)cc2C1=O	1.3	0%
CC(C)(c1ccc(O)cc1)c1ccc(O)c(C(=O)O)c1	0.9	6%
Cc1cc(C)n(C(N)=NC(=O)c2ccccc2)n1	0.3	-1%
COc1cc(C(=O)N2CCN(c3cccc(Cl)c3)CC2)ccc1OCC(=O)N1CCOCC1	-0.6	-2%
CC1(C)C2CCC(CN=C(N)CSS(=O)(=O)O)C1C2 (stereo unspecified)	-4.2	6%
C[C@@H]1CN([C@H](C)CO)C(=O)CCCn2nncc2CO[C@H]1CN(C)Cc1ccc(-c2ccccc2)cc1	3.0	4%
Cc1noc(C)c1C(=O)OC(C)C(=O)Nc1ccc([N+](=O)[O-])cc1C(F)(F)F (stereo unspecified)	-0.7	5%
COC(=O)C[C@H]1C[C@@H]2c3cc(NC(=O)Nc4ccccc4)ccc3O[C@@H]2[C@@H](CO)O1	-0.6	0%
CCN1C(=O)[C@H]2[C@@H](c3ccc(C)cc3)N[C@]3(CCCN(Cc4ccccc4)C3=O)[C@H]2C1=O	0.2	-2%
C[C@@H]1CCCCO[C@@H](CN(C)CC2CC2)[C@@H](C)CN([C@H](C)CO)C(=O)c2cc(N(C)C)ccc2O1	3.9	-1%
COc1ccc(CN2CCC[C@]3(N[C@H](c4ccc(C)cc4)[C@@H]4C(=O)N(Cc5ccccc5)C(=O)[C@@H]43)C2=O)cc1	1.7	5%
O=c1cc(CO)[nH]nc1CO	2.6	0%
CSc1ncnc2c1ncn2CCCN1CCN(Cc2c(C)cc(C)cc2C)CC1	-3.1	-5%
C[C@@H]1CN([C@@H](C)CO)C(=O)CCCn2nncc2CO[C@@H]1CN(C)C(=O)Nc1cccc(Oc2ccccn2)c1	-5.0	3%
O=[N+]([O-])c1ccc(-c2nc(Cl)c3c(n2)CCCC3)o1	-0.1	-5%
c1ccc(CNc2ncn[nH]2)cc1	-0.1	1%
Cc1noc(C)c1S(=O)(=O)Nc1ccc2c(c1)C(=O)N([C@@H](C)CO)C[C@H](C)[C@@H](CN(C)Cc1ccc(C(F)(F)F)cc1)OCCCC[C@H](C)O2	3.2	96µM*
O=C(OCc1ccccc1)N1CCC2CC1c1cc(N3CCNCC3)ccc12 (stereo unspecified)	1.7	-10%
CC(OC(=O)C1=COCCO1)C(=O)NC1CCCCC1 (stereo unspecified)	-0.1	-8%
CCOCc1nc(N)nc(N)c1-c1cccc(Cl)c1	0.6	-2%
O=C1CSC(=S)N1Cc1ccccc1	5.0	1%
CC(=O)C1=C(O)C2(C)c3c(O)c(C)c(O)c(C(C)=O)c3OC2CC1=O (stereo unspecified)	51*	13%
COc1ccccc1-c1n[nH]nc1C1=CC(=O)CC(C)(C)C1	1.3	-4%
O=C(CCCN1C(=O)C(c2ccccc2)Oc2cccnc21)Nc1ccccc1Br (stereo unspecified)	-0.4	-3%
C[C@@H]1CN([C@@H](C)CO)C(=O)c2cc(NC(=O)C3CCCCC3)ccc2O[C@@H](C)CCCCO[C@H]1CN(C)S(=O)(=O)c1ccc(Cl)cc1	-2.8	1%
C[C@H](O)[C@@H]1C(=O)N2CCc3c([nH]c4ccccc34)[C@@H]2C[C@@H]1N(C)Cc1ccc(Cl)cc1	-1.2	6%
c1coc(-c2nc(N=C3N=c4ccccc4=N3)[nH]c2-c2ccco2)c1	3.8	8%
C[C@@H]1CN([C@@H](C)CO)C(=O)CCCn2nncc2CO[C@H]1CN(C)Cc1ccccc1	1.4	0%
O=C(NCc1ccccc1OC(F)(F)F)C1CCC(=O)N(CCCN2CCOCC2)C1 (stereo unspecified)	1.9	-5%
O=C(Nc1cccc([N+](=O)[O-])c1)c1ccc([N+](=O)[O-])o1	1.6	-4%
CC1=C(C(=O)N2CCOCC2)CC(CC(=O)NC2CC2)C(=O)N1Cc1ccccc1 (stereo unspecified)	-0.6	0%
COc1cccc(C(=O)c2ccccc2NC(C)=O)c1	1.7	3%
O=C(c1cc(C2CC2)nn1-c1ccccc1)N1CCN(S(=O)(=O)c2ccc(F)cc2)CC1	-4.0	0%
CC1=C(C(=O)N2CCOCC2)CC(CC(=O)NCc2cccc3ccccc23)C(=O)N1CCCN1CCCC1=O (stereo unspecified)	2.5	-1%
C/C(COc1ccccc1)=N\NC(=O)c1nnn(-c2nonc2N)c1-c1ccc(C)cc1	-6.0	6%
C[C@H]1CN([C@@H](C)CO)S(=O)(=O)c2ccc(/C=C/c3ccccc3)cc2O[C@H]1CN(C)C(=O)NC1CCCCC1	3.3	12%
CCCCNC(=O)CNC(=O)c1nn(-c2ccc(OC)c(OC)c2)c(=O)c2ccccc12	0.0	-7%
CCc1c(N=O)c(-c2ccccc2)n(O)[n+]1[O-]	-0.1	-4%
CCN(CC)C(=O)C1=C(C)N(CCCN2CCCC2=O)C(=O)C(CC(=O)NCc2cccc3ccccc23)C1 (stereo unspecified)	1.0	-3%
O=C(O)C1C(c2ccccc2)=C1c1ccc(Br)cc1 (stereo unspecified)	2.1	-2%
CC1(C)CC(=O)C=C(c2cn[nH]n2)C1	0.8	7%
CC(=NNS(=O)(=O)c1ccc(C)cc1)c1ccncc1	-0.9	-7%
CC(CO)NS(=O)(=O)c1cc(Cl)ccc1F (stereo unspecified)	-0.6	-2%
C[C@H](O)[C@@H]1CN2CCc3c([nH]c4ccc(-c5ccc6c(c5)OCO6)cc34)[C@@H]2C[C@@H]1N(C)C(=O)NC1CCCCC1	2.4	-5%
CCc1noc(C)c1C(=O)OCC(=O)c1ccc(NC(=O)CC(C)C)cc1	-0.3	5%
CCCCN1C(=O)CC2CCOC21C (stereo unspecified)	1.1	-3%
O=C(C1CCCCC1)N1C[C@@H](n2cc(-c3ccc(F)cc3)nn2)[C@H](O)C[C@@H]1c1ccccc1	-0.9	-4%
CCOC(=O)c1c(C)[nH]c(/C(C)=N/NC(=O)c2cccnc2)c1C	0.6	5%
COc1cc(/C=N/Nc2nc(C)cc(C)n2)ccc1O	3.1	2%
Cc1cc2c(c(C#N)c1C)NC=NC2C (stereo unspecified)	0.3	-5%
COc1ccccc1N1CCN(CCS(=O)(=O)c2cc(Cl)ccc2Cl)CC1	5.4	-1%
C[C@H]1CN([C@@H](C)CO)C(=O)CCCn2nncc2CO[C@@H]1CN(C)C(=O)Nc1ccnc(N2CCOCC2)c1	-2.9	9%
Cc1cc(C)c2c(=O)n(CC(=O)N3CCN(c4ccccc4)CC3)ccc2n1	-0.2	-3%
Cc1ccc(S(=O)(=O)N(C)C)cc1NC(=O)CN1C(=O)NC2(CCc3ccccc32)C1=O (stereo unspecified)	-2.0	-4%
CC(=O)NC1CC2CCCC(C1)N2C(=O)Nc1ccc(Cl)cc1 (stereo unspecified)	-5.6	-2%
CC(c1ccon1)N(C)C(=O)c1cccc(OC2CCN(S(C)(=O)=O)CC2)c1 (stereo unspecified)	-2.9	-1%
Clc1ccc(-c2nc(CSc3ccccn3)cs2)cc1	7.1	0%
N#CC(=Cc1cccs1)c1nc(-c2ccc(Cl)cc2)cs1	-23	3%

Next records.
SMILES	HNF4A DNA FP	Vif A3G
O=C(NCC(F)(F)F)c1ccc(S(=O)(=O)NCCc2ccc3c(c2)OCCO3)cc1	2.3	-5%
COc1ccc(CN2C(=O)C(CC(=O)NCC3CCCCC3)CC(C(=O)N(C)C)=C2C)cc1 (stereo unspecified)	1.8	-4%
O=C(COC(=O)c1ccc(Cl)c(S(=O)(=O)N2CCCCCC2)c1)NCc1ccccc1	-2.4	10%
Nc1cc(=O)c2[nH]cnc2[nH]1	-1.7	1%
Cn1nc(NC(=O)C(F)(F)F)c2nccnc21	-0.7	13%
COc1ccc(CN2CCC[C@]3(N[C@H](c4ccc(C(F)(F)F)cc4)[C@@H]4C(=O)N(Cc5ccccc5)C(=O)[C@@H]43)C2=O)cc1	0.8	1%
c1ccc(COc2ncnc3c2ncn3CCCNC2CCN(Cc3ccccc3)CC2)cc1	1.3	-2%
COc1ccc(CN2C(=O)C(CC(=O)NCc3cccs3)CC(C(=O)N(C(C)C)C(C)C)=C2C)cc1 (stereo unspecified)	-6.0	-3%
COc1cc(C(=O)N2CC(=O)Nc3ccccc32)cc(OC)c1OC	-1.1	5%
Nc1c(Br)cc(Br)c2c1[nH]c(=O)c1ccccc12	0.5	9%
Cc1cc2nc[nH]c(=O)n2n1	-0.9	-12%
Cc1cccc(C)c1NC(=O)CN(C)C(=O)c1ccc(OCc2ccccc2)cc1	-0.2	7%
CC1(CCc2ccccc2)NC(=O)N(CC(=O)N2CCc3ccccc32)C1=O (stereo unspecified)	-1.8	-4%
COc1ccc(NC(=O)COC(=O)CN2C(=O)C3CCCCC3C2=O)cc1 (stereo unspecified)	2.5	4%
CCOC(=O)CCCCCC(=O)Nc1ccc2c(c1)C(=O)N([C@@H](C)CO)C[C@@H](C)[C@H](CN(C)C(=O)Nc1ccccc1)OCCCC[C@H](C)O2	0.9	0%

Arranged by formula weight (low to high): some entries from above.
SMILES	HNF4A DNA FP	Vif A3G
COc1cc(C(=O)N2CC(=O)Nc3ccccc32)cc(OC)c1OC	-1.1	5%
CC1(CCc2ccccc2)NC(=O)N(CC(=O)N2CCc3ccccc32)C1=O (stereo unspecified)	-1.8	-4%
O=C(NCC(F)(F)F)c1ccc(S(=O)(=O)NCCc2ccc3c(c2)OCCO3)cc1	2.3	-5%
c1ccc(COc2ncnc3c2ncn3CCCNC2CCN(Cc3ccccc3)CC2)cc1	1.3	-2%

2 consecutive compounds out of the list so far, for reference:
SMILES	HNF4A DNA FP	Vif A3G
Cc1cc(C)c2c(=O)n(CC(=O)N3CCN(c4ccccc4)CC3)ccc2n1	-0.2	-3%
Cc1ccc(S(=O)(=O)N(C)C)cc1NC(=O)CN1C(=O)NC2(CCc3ccccc32)C1=O (stereo unspecified)	-2.0	-4%

High-throughput results deposited in PubChem BioAssay by several laboratories.
